High-throughput results (PubChem BioAssay)
Rce1 inhib: inhibitors of yeast Ras-converting enzyme; calls only; actives 0.27% (n = 290,000); yeast membranes, quenched prenylated peptide cleavage fluorescence; AID 2563; Q03530;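 active = fall in fluorescence gain of 50% or more versus controls, with final raw signal at or below 3038400; inconclusive = same 50% fall but final raw signal above 3038400; inactive = fall in fluorescence gain under 50%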;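 also: plate controls were neutral control wells for no effect and wells lacking membranes for full effect; tested at 10 µM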
Target sequence (Q03530 whole entry, looked up): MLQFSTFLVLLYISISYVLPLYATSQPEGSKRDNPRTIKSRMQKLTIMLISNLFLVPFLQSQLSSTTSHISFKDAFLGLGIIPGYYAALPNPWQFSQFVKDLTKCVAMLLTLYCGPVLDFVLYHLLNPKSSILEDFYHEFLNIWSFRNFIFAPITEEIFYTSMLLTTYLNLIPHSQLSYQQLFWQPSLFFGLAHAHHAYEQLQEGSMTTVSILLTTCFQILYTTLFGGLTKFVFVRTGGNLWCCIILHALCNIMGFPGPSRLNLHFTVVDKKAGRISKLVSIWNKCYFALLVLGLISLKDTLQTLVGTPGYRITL
Env fusion inh: blocks HIV Env-driven cell-cell fusion; HeLa-JRFL Env/CEM21 cell fusion, luciferase; inhibition, % at 12.3 µM; actives 1.1% (n = 360,000);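 active = mean replicate inhibition score of at least 50 and every replicate individually at or above 50; inconclusive = only one of the two criteria met; inactive = mean below 50 and not all replicates reaching 50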;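 also: 0% = plate neutral controls and 100% = maraviroc near 300 nM; one replicate is shown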
CSC inhib: cancer stem cell inhibition | cancer stem cell-like cells viability, luminescence | actives 1.1% (n = 300,000) | inhibition, % at 7.5 µM;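 active = mean at 75% or more and at least half the replicates too; inconclusive = mean and replicates disagree; tested in HMLE shEcad cells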;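 also: 0% = median of negative and 100% = median of positive control wells; the first replicate is given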
eIF4H FP inh: inhibitors of RNA binding by human eIF4H. inhibition, % at 35 µM. actives 0.94% (n = 290,000). eIF4H fluorescence polarization binding assay. AID 2012. Q15056;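 active = 50% or more with normal probe brightness, or confirmed in later tests; inconclusive = above 50% with abnormal brightness, or retests that disagree; inactive = below 50% or failed in later tests; about a fifth of its hits are not listed in these tables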;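 also: calls also rest on retests at 20 µM and on dose response follow-up; 0% = protein and probe with vehicle and 100% = probe without protein; strong numbers were not always called active; many hits fall short of the cut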
MT1-MMP act inh: inhibitors of human MT1-MMP activation; HT1080 RFP-PRO-GFP cells, GFP/RFP ratio fluorescence, overnight; percent of plate control window, DMSO zero; GFP/RFP ratio change, % at 20 µM; actives 0.061% (n = 360,000); P50281;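 active = GFP/RFP ratio change of at least 30% with cell ATP level not reduced by more than half and red fluorescence within 50% of control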; also: strong numbers were not always called active
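Assay system: RFP-PRO-GFP reporter HT1080 cells; read-out basis: GFP/RFP fluorescence ratio; benchmarks: DMSO wells and RFP-L50D-GFP cells; doses: 20 µM single dose, 1% DMSO; schedule: overnight cell settling, then overnight compound exposure, 37 °C, 5% CO2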
Yeast UUG start: yeast start codon fidelity modulation; actives 0.13% (n = 350,000); S. cerevisiae UUG-firefly luciferase reporter, luminescence/redox ratio; activity score, % at 18.7 µM; AID 602363;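 active = replicate mean at a twofold rise or more, about +100% in these data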;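 also: firefly luciferase made from a UUG start codon reports start codon fidelity; reporter light over untreated wells divided by growth signal over untreated wells; some hits fall short of that in this replicate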
PABP polyA inh: PABP-poly(A) binding inhibition. P11940. PABP-poly(A) RNA binding, fluorescence polarization. inhibition, % at 35 µM. actives 1% (n = 290,000). AID 2014;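 active = 50% or more with normal probe brightness, or confirmed in later tests; inconclusive = above 50% with abnormal brightness, or retests that disagree; inactive = below 50% or failed in later tests; about a fifth of its hits are not listed in these tables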;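 also: calls also rest on retests at 20 µM and on dose response follow-up; controls were probe without protein and protein plus probe with vehicle; some compounds called inactive have numbers as strong as hits; many hits fall short of the cut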
MT1-MMP act inh RFP: further read-out of MT1-MMP act inh, marked with its call; RFP signal change, %; measured here: RFP expression control read;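 0 = vehicle wells; hits needed this value within 50% of zero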
Starred values were filed as active, the others as inactive; i = inactive; ? = inconclusive; / = no result given; & = joins results of further samples; [ ] = another dose, or the depositor's remark. The list is partial; rates above refer to the full screens.

Start of the listing, in advance, 13 compounds:
SMILES	Rce1 inhib	Env fusion inh	CSC inhib	eIF4H FP inh	MT1-MMP act inh	MT1-MMP act inh RFP	Yeast UUG start	PABP polyA inh
COc1ccc(C2=NO[C@@H]3[C@@H]4C[C@@H]([C@H]5C(=O)N(c6ccc7c(c6)OCO7)C(=O)[C@@H]45)[C@H]23)cc1OC	i	-21	0	-4	2	0	/	12
COc1ccc(/C=C/C(=O)OCC(=O)c2c(C)[nH]c3ccccc23)cc1OC	i	-12	-5	-15	1	3	/	-6
Cc1ccc(-n2c(SCC(=O)Nc3ccc4cn[nH]c4c3)nnc2-c2ccco2)cc1	i	/	/	-1	-3	1	-12	5
CCN(CC)Cc1ccc(OC)c(Cl)c1	i	2	-12	-4	1	4	-19	2
CCC(=O)Nc1ccc(/C(C)=N/NC(=O)c2c(-c3ccccc3Cl)noc2C)cc1	i	8	-18	6	3	3	-3	-5
CC(C)C(=O)Nc1cccc(C(=O)Nc2cc([N+](=O)[O-])ccc2Cl)c1	i	-1	-2	1	1	1	/	2
C=CCN1C=C2C(=O)C(C)(OC(=O)CCC(=O)OC)C(=O)C=C2C=C1C1CC1 (configuration not stated)	i	-17	-9	24	2	8	0	25
c1cncc(-c2cccnc2)c1	/	-87	-13	-7	4	5	-46	-4
CCOc1ccc2c(c1)C(=O)C(=O)N2CC1COc2ccccc2O1 (configuration not stated)	i	-162	19	-28	1	4	-8	4
C[C@H](CO)N1C[C@H](C)[C@@H](CN(C)C(=O)Nc2ccc(C(F)(F)F)cc2)Oc2c(NC(=O)C3CCCCC3)cccc2C1=O	/	27	6	/	1	-3	5&5	/
O=c1[nH]c(Nc2ccccc2)cc2ccccc12	i	/	4	?	-36	-2	/	?
COc1ccc(N(CC(=O)Nc2cccc(C(C)=O)c2)S(C)(=O)=O)cc1OC	i	/	9	-8	7	5	-10	-10
COc1ccc(NC(=O)Cn2cc(S(=O)(=O)Cc3ccccc3)c3ccccc32)c(OC)c1	i	13	-15	12	3	10	/	-7

Results, repeating the preview:
SMILES	Rce1 inhib	Env fusion inh	CSC inhib	eIF4H FP inh	MT1-MMP act inh	MT1-MMP act inh RFP	Yeast UUG start	PABP polyA inh
COc1ccc(C2=NO[C@@H]3[C@@H]4C[C@@H]([C@H]5C(=O)N(c6ccc7c(c6)OCO7)C(=O)[C@@H]45)[C@H]23)cc1OC	i	-21	0	-4	2	0	/	12
COc1ccc(/C=C/C(=O)OCC(=O)c2c(C)[nH]c3ccccc23)cc1OC	i	-12	-5	-15	1	3	/	-6
Cc1ccc(-n2c(SCC(=O)Nc3ccc4cn[nH]c4c3)nnc2-c2ccco2)cc1	i	/	/	-1	-3	1	-12	5
CCN(CC)Cc1ccc(OC)c(Cl)c1	i	2	-12	-4	1	4	-19	2
CCC(=O)Nc1ccc(/C(C)=N/NC(=O)c2c(-c3ccccc3Cl)noc2C)cc1	i	8	-18	6	3	3	-3	-5
CC(C)C(=O)Nc1cccc(C(=O)Nc2cc([N+](=O)[O-])ccc2Cl)c1	i	-1	-2	1	1	1	/	2
C=CCN1C=C2C(=O)C(C)(OC(=O)CCC(=O)OC)C(=O)C=C2C=C1C1CC1 (configuration not stated)	i	-17	-9	24	2	8	0	25
c1cncc(-c2cccnc2)c1	/	-87	-13	-7	4	5	-46	-4
CCOc1ccc2c(c1)C(=O)C(=O)N2CC1COc2ccccc2O1 (configuration not stated)	i	-162	19	-28	1	4	-8	4
C[C@H](CO)N1C[C@H](C)[C@@H](CN(C)C(=O)Nc2ccc(C(F)(F)F)cc2)Oc2c(NC(=O)C3CCCCC3)cccc2C1=O	/	27	6	/	1	-3	5&5	/
O=c1[nH]c(Nc2ccccc2)cc2ccccc12	i	/	4	?	-36	-2	/	?
COc1ccc(N(CC(=O)Nc2cccc(C(C)=O)c2)S(C)(=O)=O)cc1OC	i	/	9	-8	7	5	-10	-10
COc1ccc(NC(=O)Cn2cc(S(=O)(=O)Cc3ccccc3)c3ccccc32)c(OC)c1	i	13	-15	12	3	10	/	-7
Cc1ccc(NC(=O)COC(=O)c2nn(-c3ccc(Cl)cc3)cc2O)cc1	/	-41	6	/	5	2	-2	/
Cc1ccc(CNC(=O)C2CCC(=O)N(CCc3ccc(Cl)cc3)C2)cc1 (configuration not stated)	i	-26	-10	-3	-1	-1	-6	11
CCc1cccc(OCC(=O)Nc2ccc(C(=O)O)cc2NC(=O)COc2cccc(CC)c2)c1	i	13	7	-3	5	-3	-7	12
CCCc1nnc(SCC(=O)NC2CC2)n1C	i	10	-7	-2	0	1	/	0
C#CCNC(=O)C1=C[C@@H](c2cn(C(C)=O)c3ccccc23)C[C@@H](OCCCCO)O1	i	-46	-3	-13	-3	4	-3	0
COc1ccc(CN2CCC(C(=O)NCCc3ccc(OC)c(OC)c3)CC2)c(OC)c1	i	/	-6	-1	0	0	8	-1
COc1ccccc1-c1cc(C(=O)NC2CCCC2)no1	i	-7	-5	8	-1	-1	-4	5
CC(C)(C)c1ccc(NC(=O)Nc2ccc(OCC(=O)N3CCOCC3)cc2)cc1	i	-71	5	0	2	-2	/	17
Cc1ccccc1OCC(=O)NNC(=O)C1CC(=O)N(c2ccc3c(c2)OCCO3)C1 (configuration not stated)	/	5	/	/	-3	-1	-3	/
O=S(=O)(Cc1ccc(Cl)cc1)Nc1ccc(Cl)cn1	i	25	-8	2	-2	0	10	-6
c1ccc(-c2csc(-c3cccnc3)n2)cc1	i	-14	-6	-9	-1	0	/	-17
CCOc1cc(N2CCOCC2)c(OCC)cc1NC(=O)CN1C(=O)NC(Cc2ccccc2)C1=O (configuration not stated)	i	/	9	-17	3	-3	-11	-6
CC(C)C1C(=O)CC(c2ccccc2)NC1c1ccccc1 (configuration not stated)	i	-11	-1	13	-5	-4	3	7
COc1cc(NS(=O)(=O)c2ccc(NC(=O)COc3ccc(C)cc3C)cc2)nc(OC)n1	i	-15	/	-9	6	8	23	0
CCO[C@H]1OC(C(=O)N2CCN(C)CC2)=C[C@@H](c2ccc(C(F)(F)F)cc2)[C@@H]1CCCO	i	-7[16.7 µM]	9	-2	-1	0	-17&-4	-5
CCCCNC(=O)COC(=O)c1ccc(N(C)C)cc1	i	6	-2	3	-1	-1	/	-16
CC(C)N=C(NS(=O)(=O)c1ccc(Br)cc1)c1ccc(Cl)cc1	i	0	4	10	-3	-2	/	-3

In another format: entries from further up
| Molecule | Rce1 inhib | Env fusion inh | CSC inhib | eIF4H FP inh | MT1-MMP act inh | MT1-MMP act inh RFP | Yeast UUG start | PABP polyA inh |
| --- | --- | --- | --- | --- | --- | --- | --- | --- |
| O=S(=O)(Cc1ccc(Cl)cc1)Nc1ccc(Cl)cn1 | i | 25 | -8 | 2 | -2 | 0 | 10 | -6 |
| c1ccc(-c2csc(-c3cccnc3)n2)cc1 | i | -14 | -6 | -9 | -1 | 0 | / | -17 |

Going on with the list:
SMILES	Rce1 inhib	Env fusion inh	CSC inhib	eIF4H FP inh	MT1-MMP act inh	MT1-MMP act inh RFP	Yeast UUG start	PABP polyA inh
CC1CCC(NC(=O)c2ccc(/C=C3\Oc4ccccc4N(C)C3=O)cc2)CC1 (configuration not stated)	i	/	/	-8	/	/	/	-10
O=C(CSc1ccc2nnc(-c3cccnc3)n2n1)Nc1cccc(F)c1	i	3	6	-8	-2	-2	-7	-10
COc1ccccc1CC(=O)Nc1cc(Cl)ccc1O	i	-9	6	-8	3	1	/	1
N#Cc1cc2c(nc1SCC(=O)Nc1nccs1)CCCCC2	i	/	4	-15	-3	0	-7	-4
CC(C)N(C(=O)[C@H]1C[C@H](CC(=O)NCC23CC4CC(CC(C4)C2)C3)C(=O)N2CCc3c([nH]c4cc(CCC(=O)N(C)C)ccc34)[C@]12C)C(C)C	/	-115	/	/	-11	-16	-8	/
COc1ccc2cc(C(=O)COC(=O)COc3ccc4c(C)cc(=O)oc4c3)ccc2c1	i	/	-2	-13	-1	-1	/	11
O=C(CSc1nnc(CNc2cccc(Cl)c2)o1)OC1CCCCC1	i	2	-2	-15	-2	-2	-19	-7
CCOC(=O)c1c(-c2ccc(OC)cc2)csc1/N=C/C1C(=O)CCCC1=O	i	2	21	?	-63	18	/	11
COc1ccc(CCNC(=O)CSc2nc3[nH]ncc3c(=O)n2-c2ccccc2Br)cc1OC	i	-3	-8	-3	0	2	/	-6
CN(C)S(=O)(=O)c1ccc(C(=O)Nc2nnc(SCC(=O)NCC3CCCO3)s2)cc1 (configuration not stated)	i	-4	-34	4	1	6	-28	6
CCN(CC(=O)Nc1ccccc1OC)C(=O)Cn1cnc2ccccc2c1=O	i	/	-14	-3	2	5	-16	-13
NC(=O)C1(N2CCCCC2)CCN(c2nc(-c3ccc(Br)cc3)cs2)CC1	i	46	19	-12	1	-6	-7	13
Cc1ccc(CS(=O)Cc2ccc(C(=O)N3CCN(c4ccc(F)cc4)CC3)o2)cc1 (configuration not stated)	i	-4	2	-15	-2	-3	21	-2
CCOC(=O)C1CCN(c2c(N3CCN(c4ccccc4OC)CC3)c(=O)c2=O)CC1	/	4	/	1	1	4	-1	-2
O=C(O)CCCCCNc1ncnc2ccc(Br)cc12	i	27	5	4	-8	-9	4	14
O=C1Nc2ccc([N+](=O)[O-])cc2C1(O)N1CCCCC1 (configuration not stated)	i	/	-13	4	8	10	-10	0
CCOc1ccc(C(=O)C(C)OC(=O)C2CCN(c3ccc(C(F)(F)F)cn3)CC2)cc1 (configuration not stated)	i	7	1	/	-12	-20	-11	/
CN1/C(=C\C(=O)CSc2nnc(N)s2)C(C)(C)c2ccccc21	i	14	-5	42	7	1	-9	-8
CCOc1c(C)cnc2c1c(=O)n(Cc1cccc(Cl)c1)c(=O)n2C	i	6	24	-13	-2	-4	-13	6
CC(C)n1c(=O)n(CC(=O)NCC2CCCO2)c(=O)c2c3c(sc21)COC(C)(C)C3 (configuration not stated)	i	3	2	-11	-3	1	-12	0
Cc1ccc(N(C)C(=O)CN(C)S(=O)(=O)c2ccc3c(c2)n(C)c(=O)c(=O)n3C)cc1	i	2	8	-2	1	1	-1	5
Cc1c(C(=O)NCc2cccc([N+](=O)[O-])c2)sc(=O)n1Cc1ccc(C(C)C)cc1	/	34	/	/	-2	-15	-17	/
CCOC(=O)C(C)Sc1nnc(-c2ccccc2O)n1-c1ccc(C)cc1 (configuration not stated)	/	-12	5	-5	6	4	-7	7
Cc1cn([C@H]2C[C@H](O)[C@@H](/C=C/C(=O)NCCCc3ccccc3)O2)c(=O)[nH]c1=O	/	-4	/	/	4	2	-10	/
O=C(CCN1C(=O)S/C(=C\c2ccccc2)C1=O)N1CCOCC1	i	-17	-6	/	-1	-2	0	/
O=C(NC(Cc1c[nH]c2ccccc12)C(=O)O)/C(=C\c1ccccc1)NC(=O)c1ccccc1 (configuration not stated)	i	-7	5	2	-1	1	-13	-5
C/C(=N\Nc1ccc(S(N)(=O)=O)cc1[N+](=O)[O-])c1cccnc1	i	18	9	15	0	-7	-20	-1
O=C(NCCCN1CCCC1=O)c1ccc(S(=O)(=O)Nc2ccccc2F)cc1	i	14	/	/	-1	5	-18	/
